Source: PubChem (National Center for Advancing Translational Sciences (NCATS))
miR-21 FLuc = qHTS Assay for Modulators of miRNAs and/orActivators of miR-21; HeLa miR-21 FLuc reporter, luciferase, 48 h; Potency, µM (highest dose often 38.3 µM), for inactives: at the top dose reporter change, positive = more light; 340,000 tested, under 10 active; active = well fitted rising curve with a large enough effect; inconclusive = small, poorly fitted or top-dose-only effect; inactive = no such curve, though single readings can be large or run the other way;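 further: % of control where 0% means no effect; miR-21 action dims this reporter so a rising signal means less miR-21 action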
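HeLa miR-21-FLuc reporter line, endogenous miR-21; 2000 cells/well in DMEM/10% FBS; compound titration up to ~40uM final, 48 h, 37 degree Celsius; luciferase detection reagent, 15 min lysis, CCD luminescence.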
Rango-impB inh = qHTS Assay for Inhibitors of Rango (Ran-regulated importin-beta cargo) - Importin beta complex formation | Importin subunit beta-1 (Homo sapiens), Q14974 | Rango CFP/YFP FRET sensor + importin beta, 45 min | Potency, µM (titrated, usually from 92.2 µM), without a hit: top-dose inhibition of complex formation | actives 0.031% (n = 340,000) | AID 540263, 2011; active = rising FRET ratio curve, often small or poorly fitted; inconclusive = mostly compound fluorescence or quenching in the first reads; inactive = flat curves in all reads;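 further: potency means the concentration at half of the fitted maximal effect; 0% = DMSO wells and 100% = buffer wells lacking importin beta; nearly all actives have a fitted effect of over 15% in size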
Target sequence (Q14974 whole entry, looked up): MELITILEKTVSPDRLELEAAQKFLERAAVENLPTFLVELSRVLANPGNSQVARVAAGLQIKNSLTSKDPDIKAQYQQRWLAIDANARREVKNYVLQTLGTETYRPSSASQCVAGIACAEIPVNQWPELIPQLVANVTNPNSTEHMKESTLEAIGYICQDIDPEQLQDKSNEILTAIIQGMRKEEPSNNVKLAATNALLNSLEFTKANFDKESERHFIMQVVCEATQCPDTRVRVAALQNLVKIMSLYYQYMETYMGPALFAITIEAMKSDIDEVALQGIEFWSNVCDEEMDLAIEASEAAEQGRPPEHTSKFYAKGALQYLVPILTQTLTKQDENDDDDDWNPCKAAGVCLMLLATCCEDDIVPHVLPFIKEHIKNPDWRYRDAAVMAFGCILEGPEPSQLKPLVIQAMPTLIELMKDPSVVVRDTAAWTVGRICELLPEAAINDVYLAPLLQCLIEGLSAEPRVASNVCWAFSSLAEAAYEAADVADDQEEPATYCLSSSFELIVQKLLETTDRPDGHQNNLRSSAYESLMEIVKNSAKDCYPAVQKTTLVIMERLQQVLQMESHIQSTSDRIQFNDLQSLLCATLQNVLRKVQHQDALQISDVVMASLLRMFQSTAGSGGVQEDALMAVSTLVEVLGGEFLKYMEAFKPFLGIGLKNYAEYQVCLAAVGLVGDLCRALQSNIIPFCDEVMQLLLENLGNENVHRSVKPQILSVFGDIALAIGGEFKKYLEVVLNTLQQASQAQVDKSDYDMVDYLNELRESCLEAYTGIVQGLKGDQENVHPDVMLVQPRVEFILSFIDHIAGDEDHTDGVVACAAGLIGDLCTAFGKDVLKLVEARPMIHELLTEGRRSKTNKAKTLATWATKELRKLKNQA
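FRET biosensor (snurportin 1 IBB flanked by EYFP and cerulean), 50 nM, with compound 5 min, then 0.125 microM importin beta in PBS, 1 mM DTT, 0.02% Tween-20, 0.1% BSA. CFP/YFP ratio read after 45 min at room temperature; pre-read flags interference.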
Rango release inh = qHTS Assay for Inhibitors of RanGTP induced Rango (Ran-regulated importin-beta cargo) - Importin beta complex dissociation. Potency, µM (doses to about 46.1 µM), for the others: at the top dose activity change, negative = inhibition. Biochemical FRET Rango-importin beta, RanGTP-induced dissociation. actives 0.071% (n = 340,000). Snurportin-1 (Homo sapiens) + GTP-binding nuclear protein Ran (Homo sapiens) + Importin …; active means falling FRET ratio curve, often poorly fitted, with flat reads before Ran was added; inconclusive means other falling curves, or compound fluorescence or quenching; inactive means flat or rising ratio curve;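 further: potency means the concentration at half of the fitted maximal effect; % of control where 0% means no effect; nearly all actives have a fitted effect of over 45% in size; -100% = wells without RanGTP and RCC1; the record marks most hits as doubtful in a second field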
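FRET read at 45 min, room temperature: inhibitors block the CFP/YFP signal rise when RanGTP (0.6 uM Ran, 2 mM GTP, 0.2 uM RCC1) frees Rango (0.1 uM) from importin beta (0.25 uM). Pre-read after 5 min compound exposure flags interference.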
GLA inh pH 4.5 = qHTS Assay for Inhibitors of Human alpha-Galactosidase at pH 4.5. Alpha-galactosidase A (Homo sapiens), P06280. purified enzyme, 4-MU-alpha-Gal fluorescence, pH 4.5. activity change, negative = inhibition, % at 105 µM. 230,000 tested, under 10 active; inconclusive = small, poorly fitted or top-dose-only inhibition, or a rising curve; inactive = flat fitted curve, though single readings scatter; no compound was filed as active;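 further: 0% = full activity with enzyme and -100% = basal without enzyme; dose as in the result columns while the protocol names 77 µM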
* hit, by the source's call; ? = inconclusive; nt = no result given; & = joins results of further samples.

Start of the data: the first 2 compounds, to show the layout:
Each structure is followed by: miR-21 FLuc	Rango release inh	Rango-impB inh	GLA inh pH 4.5
> C=CCC1(/C=N/O)CCOC(C)(C)C1 (configuration not stated)
  3%	18%	-3.9%	1
> Cc1ccc(C)c(NC(=O)c2cc(-c3cc(C)c(C)cc3O)n[nH]2)c1
  -54%	-5%	0.2%	nt

Results, repeating the preview:
Each structure is followed by: miR-21 FLuc	Rango release inh	Rango-impB inh	GLA inh pH 4.5
> C=CCC1(/C=N/O)CCOC(C)(C)C1 (configuration not stated)
  3%	18%	-3.9%	1
> Cc1ccc(C)c(NC(=O)c2cc(-c3cc(C)c(C)cc3O)n[nH]2)c1
  -54%	-5%	0.2%	nt
> O=C(NCC1CCCO1)C1CCN(C2CCN(Cc3cccs3)CC2)CC1 (configuration not stated)
  0%	-7%	-1.7%	3
> CC1(C)S/C(=N/N=C/c2cccs2)NC1=O
  -29%	-9%	-4.1%	-9
> NC(=O)NO
  nt	1%	2.2%	-1&6
> CN(c1ccc(C(=O)N2CCOCC2)cc1)S(C)(=O)=O
  0%	30%	-2.1%	-6
> O=C(CN1CCCC1)Nc1sc2c(c1C(=O)Nc1ccccc1)CCCC2
  1%	-17%	-2.5%	nt
> O=S(=O)(NCCc1ccccc1)c1ccc(Cl)nc1
  -6%	10%	-0.5%	-4
> COc1cccc(N2C(=O)CC(N3CCN(CCN=CC4=C(O)CC(C)(C)CC4=O)CC3)C2=O)c1 (configuration not stated)
  2%	9%	0.6%	-1
> O=C(c1cc2ccccc2cc1O)N1CCN(c2cccc(Cl)c2)CC1
  nt	-11%	4.4%	nt
> COc1ccc(Nc2nc3cc(C)ccc3cc2C#N)cc1
  -9%	?	?	nt
> O=C(COC(=O)c1ccccc1NC(=O)c1ccco1)Nc1ncc(Cl)cc1Cl
  1%	-9%	7.3%	5
> O=C(Nc1cccc(Cl)c1Cl)c1ccc(-c2ccccc2)cc1
  -32%	-3%	4.8%	5
> Cc1ccccc1OCC(=O)Nc1cccc(S(=O)(=O)NC2=NCCC2)c1
  nt	1%	2.7%	nt
> C(=N\Nc1nncc2ccccc12)/c1ccccc1
  -53%	1%	-1.1%	-6
> CS(=O)(=O)N(CC(=O)N1CCN(Cc2ccccc2)CC1)c1cccc([N+](=O)[O-])c1
  4%	1%	-0.5%	nt
> CCn1c2ccccc2c2nnc(SCC(=O)NCc3cccs3)nc21
  -14%	1%	0.8%	5
> Cn1c(=O)n(C)c2cc(N3CCOCC3)c(NC(=O)c3cccc(Cl)c3)cc21
  -3%	-4%	-1.1%	nt
> CC1=C/C(=N\NC(=O)c2cccs2)CC(C)(C)C1
  -1%	28%	-4.7%	3
> CCn1c(CNC(=O)c2ccc(OC)cc2)nnc1SCC(=O)c1ccccc1
  -12%	28%	-1.2%	-5
> CCOC(=O)c1cc2sccc2n1CC(=O)N1CCCc2ccccc21
  2%	-6%	3.7%	-4
> Cc1nonc1NC(=O)CSc1cn[nH]n1
  4%	10%	4.6%	nt
> Cc1nc2c(-c3ccccc3)c(C)nn2c(C)c1CCC(=O)NCc1ccco1
  -1%	11%	?	3
> CCN(CC)c1ccc(S(=O)(=O)N2CCOCC2)cc1NC(=O)CN1C(=O)NC2(CCC(C)CC2)C1=O (configuration not stated)
  nt	0%	-0.4%	nt
> COC(=O)c1ccc(NN=Nc2ccc(C)cc2)cc1
  -63%	13%	1.0%	-4
> Cc1cc(C(=O)COC(=O)c2ccc3c(c2)NC(=O)CS3)c(C)n1CC1CCCO1 (configuration not stated)
  -18%	-6%	-1.8%	-3
> COc1ccc(CCNC(=O)CSc2nc3[nH]ncc3c(=O)n2-c2ccc(Cl)cc2Cl)cc1OC
  2%	-1%	0.0%	-9
> CCCOc1ccc(C(=O)NNC(=S)NC(=O)c2ccco2)cc1
  ?	0%	0.2%	5
> COc1ccc(NS(=O)(=O)c2ccc(Br)cc2)cn1
  -1%	-10%	0.4%	nt
> O=S(=O)(Nc1ccc2c(c1)OCO2)c1ccc(F)c(F)c1
  nt	13%	4.4%	nt

The closing 2 entries of the section before open the next one:
Each structure is followed by: miR-21 FLuc	Rango release inh	Rango-impB inh	GLA inh pH 4.5
> COc1ccc(NS(=O)(=O)c2ccc(Br)cc2)cn1
  -1%	-10%	0.4%	nt
> O=S(=O)(Nc1ccc2c(c1)OCO2)c1ccc(F)c(F)c1
  nt	13%	4.4%	nt
> COc1ccc(OC)c(CCNC(=O)CS(=O)(=O)Cc2nc(-c3ccccc3Cl)oc2C)c1
  -5%	-14%	-1.3%	nt
> CC(=O)Nc1ccc(NC(=O)c2ccccc2C)cc1
  -11%	1%	0.8%	-1
> CC(C)(C)C1CCC(C(=O)OCC(=O)N2CCOCC2)CC1 (configuration not stated)
  -6%	7%	-2.2%	0
> Cc1ccc(OCC(=O)NC(C)c2ccccc2)c([N+](=O)[O-])n1 (configuration not stated)
  -19%	0%	3.7%	5
> CCN1CCN(CCC(=O)Nc2ccccc2C)CC1
  -1%	-10%	-0.6%	nt
> COc1cccc(OC)c1C(=O)Nc1nc(-c2ccccc2)cs1
  -5%	1%	0.2%	nt
> Cc1cccc(NC(=O)CSCC(=O)NCc2ccco2)c1
  -4%	-4%	1.4%	nt
> COc1ccc(C(CC(=O)O)N2Cc3ccccc3C2=O)cc1 (configuration not stated)
  -2%	3%	4.2%	nt
> COc1cccc(C(=O)COc2ccc3ccc(=O)oc3c2)c1
  -7%	-3%	0.1%	2
> CCCSCCCNC(=O)Cn1c(=O)c2cccn2c2ccccc21
  -3%	0%	-2.3%	nt
> CC1CC(C)CN(CC(=O)c2c[nH]c3ccccc23)C1 (configuration not stated)
  -2%	-18%	?	nt
> CC(=O)Oc1cccc2c1C(=O)C1CC=CC(OC(C)=O)C1C2=O (configuration not stated)
  nt	21%	7.2%	nt
> Cc1nn(CC2CC2)c(=O)n1-c1ccc(Oc2ccccc2)cc1
  10%	-12%	3.0%	10
> CC1(C(=O)O)CCC(C(=O)NCCc2ccccc2)C1(C)C (configuration not stated)
  -7%	16%	-1.0%	1
> CCOc1ccccc1NC(=O)C(C)CC (configuration not stated)
  3%	8%	3.9%	-10
> COC(=O)c1ccc(/C=C(\C#N)c2ccccn2)cc1
  -46%	-8%	-0.9%	-1
> CCOc1ccc(OCC)c(NC(=O)c2ccc(CNc3c(N4CCOCC4)c(=O)c3=O)cc2)c1
  -1%	-4%	-0.3%	4
> Cc1nnc(SCC(=O)NNC(=O)CC#N)[nH]c1=O
  -4%	14%	?	-6
> C=CCNc1nc(Nc2ccc(-c3nc4ccccc4o3)cc2)nc(N2CCOCC2)n1
  0%	-10%	0.3%	6
> Cc1nn(Cc2ccc(F)cc2)c(C)c1NC(=O)c1cc(-c2ccco2)on1
  -1%	-12%	0.6%	-6
> CCCNC(=O)c1onc(CSc2ccc(F)cc2)c1C(=O)NC(C)C
  nt	19%	-0.1%	nt
> Cc1cc(C)nc(NC(=S)NC(=O)c2ccccc2F)n1
  nt	-5%	-2.0%	nt
> COc1ccc(C2C(C(=O)N3CCN(C)CC3)c3cc(OC)c(OC)cc3C(=O)N2C)cc1 (configuration not stated)
  -1%	-8%	3.0%	0
> O=C1c2cccc3c(N4CCCCC4)ccc(c23)C(=O)N1CCO
  -52%	?	?	-7
> COc1ccc(/C=N/NC(=O)c2ccc(CN3C(=O)c4cccc5cccc3c45)cc2)cc1O
  -13%	?	?	-2
> COc1ccccc1OCCOc1ccc(/C=C2/C(=N)N3OC(C)=CC3=NC2=O)cc1OC
  2%	?	0.9%	2
> Clc1ccc(OCc2nnc(SCCN3CCCCC3)n2Cc2ccco2)cc1
  10%	20%	9.9%	-12
> Cc1[nH]n(S(=O)(=O)c2ccccc2)c(=O)c1N=Nc1cccc(Cl)c1
  1%	27%	-5.5%	nt
> CCOc1ccccc1N(CC(=O)Nc1ccc(OC)cc1OC)S(=O)(=O)c1ccccc1
  23%	10%	0.2%	nt
> CS(=O)(=O)N1Cc2ccccc2CC1C(=O)OCC(=O)NCCc1ccc(S(N)(=O)=O)cc1 (configuration not stated)
  nt	13%	-0.7%	nt
> O=C(CC(=O)NCc1ccc(Cl)cc1)NCc1ccc(Cl)cc1
  5%	7%	2.1%	nt
> O=C(CSc1ccc(-c2cccnc2)nn1)N1CCCc2ccccc21
  -1%	nt	nt	0
> Cc1c(NS(=O)(=O)c2cccc(C(=O)NCc3ccco3)c2)c(=O)n(-c2ccccc2)n1C
  nt	-15%	?	nt
> CCCn1c(SCC(=O)NC(=O)NC(C)(C)C)n[nH]c1=O
  -3%	5%	-1.1%	-28
> O=C(NC(=S)Nc1ccc2[nH]c(=O)[nH]c2c1)c1cc(Br)ccc1Cl
  2%	8%	1.4%	nt
> Cc1ccc(N2C(=O)/C(=C\c3ccco3)SC2=S)cc1
  -5%	-9%	-0.4%	-1
> CC(=O)Nc1ccc(S(=O)(=O)N2CCc3ccccc3C2)cc1
  -4%	-10%	0.4%	6
> COc1ccc(CNC(=O)c2ccccc2SCC(=O)NCc2ccco2)cc1
  nt	?	-0.9%	nt
> CC12CCC(=O)N1C(C(=O)Nc1ccccc1F)CS2 (configuration not stated)
  nt	-5%	0.2%	nt
> O=C(N/C(=C/c1cccnc1)C(=O)N1CCCCCC1)c1ccccc1
  -7%	3%	-2.6%	nt
> CC(C)c1ccc(/C=C/C(=O)Nc2ccc(CN3CCOCC3)cc2)cc1
  ?	-11%	-0.5%	-14
> O=c1[nH]c2ccc(Br)cc2o1
  nt	-15%	1.0%	nt
> CCn1cnc2c1c(=O)n(Cc1ccc(C(=O)OC)cc1)c(=O)n2Cc1ccccc1
  -9%	3%	0.0%	nt
> O=C(C(c1ccccc1)C(O)c1ccccc1)N1CCOCC1 (configuration not stated)
  nt	-6%	-0.6%	nt
> O=C(NCCc1ccccc1)C1CC(c2ccccc2O)=NO1 (configuration not stated)
  -7%	9%	-0.7%	-1
> COc1ccc(CC(=O)N[C@@H]2c3cc(OC)c(OC)cc3C[C@H]2OCc2ccccc2)cc1
  nt	-6%	-1.1%	nt
> CN(C)c1ccc(NC(=O)Nc2ccc3c(c2)nnn3C)cc1
  -54%	26%	-2.3%	nt
> CCOC(=O)N1CC(C)N(CC(O)CN2CCOCC2)CC1C (configuration not stated)
  nt	9%	-0.8%	nt
> Cc1cccc(-c2cc3nc(C)cc(N4CC(C)CC(C)C4)n3n2)c1 (configuration not stated)
  -12%	10%	0.1%	4
> Cc1[nH]nc(NNC(=O)c2ccccc2)c1[N+](=O)[O-]
  -1%	-5%	-1.2%	-7
> Cc1ccc(C(=O)OCC(=O)N(C)C2CCS(=O)(=O)C2)cc1S(=O)(=O)N1CCOCC1 (configuration not stated)
  nt	19%	1.0%	nt
> CC1(C)CC(CCC(=O)Nc2ccccc2Cl)C(=O)O1 (configuration not stated)
  -2%	13%	0.5%	7
> COc1ccc(CCN=C(N)NS(=O)(=O)c2ccc3ccccc3c2)cc1
  12%	1%	-2.9%	-26
> CCN(CC)C(=O)N1CCN(Cc2ccc3c(c2)OCO3)CC1
  -6%	-2%	-0.4%	6
> COC(=O)N/N=C/c1cc(Cl)cc(Cl)c1OCc1ccccc1F
  1%	-16%	1.2%	-2

Some of the compounds tested; the hit share may differ from the screen's.
